High-throughput results (PubChem BioAssay)
Autofluor counter: counter-screen for toxin protease inhibitors: compound fluorescence. compound autofluorescence counterscreen, microsphere flow cytometry; stronger effect = higher value. fluorescence intensity (concentration not given with the values). hit rate 3.1% among 360,000;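 active = at least 3 SD above the mean of all compounds, about 16000 in these data; inconclusive = too few beads counted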;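 also: 100 nL of 1 mM stock went into each well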
ugtP null kill: kills S. aureus RN4220 lacking UgtP. S. aureus RN4220 ugtP deletion, OD600 growth, 16 h; some inactives read as strong as hits. growth inhibition, % (test concentration not listed). hit rate 0.54% among 330,000;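 active = z-score under -3 and OD600 up to 0.15 on both plates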;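 also: plate controls were untreated wells for no effect and antibiotic for full effect; wells of about 80 µL received 100 nL stock; the first replicate is given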
Sa RN4220 lethal: S. aureus RN4220 growth inhibition | hit rate 0.33% among 330,000 | AID 1259311 | inhibition, % (no concentration beside the values) | OD600, 16 h;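 active = z-score of -3 or lower and OD600 up to 0.18 on both plates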;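 also: plate controls were untreated cells for no effect and reference antibiotic for full effect; stock transfer was 100 nL into about 80 µL; one replicate is shown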
BJeLR lethal: kills HRASV12-expressing BJeLR cells; BJeLR (HRASV12) viability, CellTiter-Glo ATP luminescence, 48 h; reference of the scale not given here; AID 1554; hit rate 0.17% among 300,000; inhibition, % (no concentration beside the values);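 active = replicate mean above 50%; inconclusive = above 50% but judged a plate artefact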;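 also: 50 nL library stock added to about 25 µL; numbers are from one replicate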
Mtb hypoxia inh: Mtb hypoxia fluorescent reporter inhibition; fluorescence inhibition, % (no concentration beside the values); hit rate 0.1% among 300,000; M. tuberculosis hypoxia-regulated fluorescent reporter, fluorescence;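 active = 35 to 45% if threefold the growth effect, above 45% if 1.5-fold the growth effect; inactive = the rest, general growth blockers included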;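 also: wells of about 50 µL received 100 nL stock; 0% = vehicle wells and 100% = reference inhibitor wells; whole bacteria with a GFP reporter of the hypoxia response; strong numbers were not always called active; many hits fall short of the cut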
PrP 5UTR inh: suppresses PrP 5' UTR mRNA reporter expression; cell-based PrP 5' UTR mRNA reporter, plate reader; inhibition, % (test concentration not listed); hit rate 0.35% among 340,000; AID 488862;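 active = every replicate at 50% or more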;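 also: 0 = median of the neutral control wells; tested in H4 reporter cells; numbers are from one replicate; inactives centre near -14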
Mtb hypoxia inh growth: recorded beside Mtb hypoxia inh, whose call it bears; growth inhibition, %; measured here: M. tuberculosis growth (absorbance);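 0% = vehicle and 100% = reference antibiotic; read after six days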
Active calls of the source: *; ? = inconclusive; . = not tested or not shown. An unsorted share of the library; any-hit rate near 4.1%.

SMILES	Autofluor counter	ugtP null kill	Sa RN4220 lethal	BJeLR lethal	Mtb hypoxia inh	Mtb hypoxia inh growth	PrP 5UTR inh
COc1ccc(O)c(C(=O)c2cnn(-c3ccc(Cl)cc3)c2)c1	6002	-7.2	4.8	-9.0	-12.7	-3.8	-26.0
CC(=O)c1cn(CCOc2ccc(F)cc2)c2ccccc12	3909	-2.6	3.6	5.9	7.7	-4.5	-46.3
O=C(CN1C(=O)C2CC=CCC2C1=O)Nc1nnc(SCc2c(Cl)cccc2Cl)s1 (stereo not given)	3043	-4.7	4.9	4.2	.	.	-26.3
CC(C)OP(=O)(OC(C)C)/C(C=O)=N\Nc1ccc([N+](=O)[O-])cc1	3105	.	.	-4.3	.	.	-11.5
CC(=O)N1CCN(C(=O)c2ccc(-n3c(C)ccc3C)cc2)CC1	2070	6.0	5.0	3.7	-4.8	-6.5	-40.7
CCc1nnc(NC(=O)c2ccc(S(=O)(=O)N3CCCc4ccccc43)cc2)o1	8008	27.0	56.0	7.8	2.9	4.8	-4.9
Cc1cc(NC(=O)c2ccc(C)s2)n(-c2nc3ccccc3[nH]2)n1	2538	9.5	-10.2	-3.6	-8.3	4.6	4.9
CC(C)CN1C(=O)NC(NS(=O)(=O)c2ccc(N)cc2)(C(F)(F)F)C1=O (stereo not given)	2545	-5.5	1.0	-4.3	-0.4	6.2	-22.1
O=C(Nc1ccc(F)cc1F)C1CCCN1S(=O)(=O)c1cccc2nsnc12 (stereo not given)	5797	2.4	1.7	-0.4	2.0	4.3	-1.4
O=C(CCOc1ccccc1)NCc1ccccc1	3690	2.5	5.5	-3.8	19.2	13.9	-16.1
CC(OC(=O)Cc1n[nH]c(=O)c2ccccc12)C(=O)Nc1ccc(Cl)cn1 (stereo not given)	4280	1.0	1.2	-0.8	-6.8	2.4	-2.6
CCOC(=O)N1CCN(C2CCCN(C(=O)c3ccccc3N(C)C)C2)CC1 (stereo not given)	4307	-1.7	1.5	-0.9	4.8	-3.6	-14.3
O=C(COn1nnc2ccc(S(=O)(=O)N3CCOCC3)cc21)Nc1c(F)c(F)c(F)c(F)c1F	4353	0.2	3.8	-2.6	3.9	23.0	-43.0
CC(C)Cc1ccc(C#N)c(SCC(N)=O)n1	10175	4.2	7.9	1.3	14.8	7.4	-18.1
COc1ccc(C2c3ccc(O)cc3Oc3ncn(Cc4ccco4)c(=N)c32)cc1 (stereo not given)	4797	7.6	4.6	-2.5	1.4	1.2	-19.5
COc1cc(NC(C)CCc2ccccc2)cc(OC)c1OC (stereo not given)	3494	1.9	3.8	-8.3	10.1	-3.0	-16.8
CCOC(=O)N1CCN(CCC(=O)Nc2cccc(Cl)c2C)CC1	3691	6.9	0.4	0.1	11.9	14.7	-8.8
NC(=O)C1=C[C@@H](c2ccc(C(F)(F)F)cc2)C[C@@H](OCCCCO)O1	4091	.	.	-9.0	.	.	-11.5
Cc1ccc(NC(=O)C(=O)NCCN2CCN(S(C)(=O)=O)CC2)cc1	5825	12.7	6.4	7.8	6.1	-7.4	-62.0
O=C(NCCc1cccs1)C1CC(c2cccc([N+](=O)[O-])c2)=NO1 (stereo not given)	3000	-6.9	4.0	-5.7	12.6	8.5	-8.6
COc1ccc2c(c1)c(=O)cc(C)n2CC(=O)NCc1ccco1	4674	12.0	-0.5	3.0	.	.	-3.2
O=C(Nc1ccnn1C1CCN(Cc2ccc(C#CCCO)cc2)CC1)c1cccc(F)c1	5992	1.9	-0.1	2.2	5.0	0.9	-12.7
O=C(CCC1CCCC1)N1CCN(S(=O)(=O)c2ccc(Br)cc2)CC1	6066	12.7	-1.0	.	-6.6	-2.6	-21.6
COc1ccc(Cl)cc1NC(=O)CCNS(=O)(=O)c1cccc2nonc12	5454	7.4	6.7	8.4	-1.0	-6.3	-3.9
CCOC(=O)c1c(N)sc2c1CCC(C)C2 (stereo not given)	4910	-3.5	2.1	-5.0	.	.	-6.3
CCc1nc(SCC(=O)Nc2ccc(Br)cn2)n[nH]1	6571	.	.	-1.1	.	.	-9.8
Cc1cc(/C=N/NC(=O)C(O)(c2ccccc2)c2ccccc2)c(C)n1-c1ccccc1	3100	.	.	1.5	.	.	-17.1
N#C/C(=C\c1ccc(OCCN2CCOCC2)cc1)C(=O)Nc1ccc(S(N)(=O)=O)cc1	3853	6.3	2.7	-11.3	6.2	-4.9	-7.4
Cc1ccc(C2CCN(C(=S)Nc3cccc(Cl)c3)C2)cc1 (stereo not given)	4570	-2.4	-4.7	7.5	2.7	11.1	.
Fc1ccc(CSc2ncnc3sc4c(c23)CCCC4)cc1	19865*	82.9*	7.7	12.9	2.3	12.3	2.7
COc1ccc(/C(O)=C2/C(=O)C(=O)N(Cc3cccnc3)C2c2ccco2)cc1OC (stereo not given)	3695	3.5	3.0	5.1	22.2	15.3	-19.7
CCCS(=O)(=O)Nc1c(C(=O)O)[nH]c2ccccc12	10111	-2.6	2.1	-3.1	2.1	3.2	-9.5
CCn1c(SCC(=O)Nc2nc(-c3ccccc3)cs2)nc2c1c(=O)n(C)c(=O)n2C	2093	9.7	-3.1	2.3	11.2	1.0	-6.2
Cc1cc(C(=O)COC(=O)c2ccccc2O)c(C)n1Cc1cccs1	8313	36.1	-7.8	7.6	-4.0	8.2	90.9*
O=C(c1ccc(S(=O)(=O)c2cccc(Cl)c2)c([N+](=O)[O-])c1)N1CCN(c2ccccn2)CC1	3897	5.8	-1.8	2.6	4.7	4.6	-22.4
O=c1[nH]c(O)c(C=Nc2ccc(F)c(Cl)c2)c(=O)[nH]1	4142	-0.7	-1.2	12.5	3.0	4.2	.
O=C(CCN1CCCCC1)NNC(=S)NC(=O)c1ccc(Br)cc1	4794	0.8	11.2	0.5	-0.1	9.4	5.3
O=S(=O)(Cc1ccccc1)NCc1cccnc1	8318	10.7	5.8	-0.4	-2.8	-0.8	0.1
Cc1ccc(CCC(=O)NCc2ccccc2)o1	3581	2.0	2.5	1.5	.	.	-13.6
O=C(CS(=O)(=O)Cc1ccccc1)Nc1nc2ccccc2s1	?	2.3	6.4	-0.2	3.1	2.5	10.5
COc1ccc(S(=O)(=O)N2CCCC(C(=O)NCc3ccncc3)C2)cc1 (stereo not given)	2565	-15.7	-5.9	-6.3	.	.	-22.2
O=C1Nc2ccccc2/C1=N/N=C/c1ccc(-c2ccc([N+](=O)[O-])cc2)o1	4073	.	.	5.8	.	.	-1.7
Cc1cc(-c2nnc(SCC(=O)Nc3ccccn3)o2)no1	3332	-3.9	0.0	7.7	-6.3	-0.2	-17.8
O=C(c1ccc(Br)s1)N1CCN(c2ccccn2)CC1	6307	.	.	3.9	.	.	-17.4
COc1cc(CN2CCCC(CO)(Cc3ccccc3)C2)ccc1O (stereo not given)	2999	11.0	4.0	-1.9	-0.9	-0.6	2.7
COc1ccc(C2(C)NC(=O)N(CC(=O)Nc3ccc4[nH]c(=O)[nH]c4c3)C2=O)cc1 (stereo not given)	6198	0.6	1.7	-5.1	-3.4	5.9	-4.9
CSC1=NSC2=NC(=O)/C(=C\c3cccs3)C(=N)N12	8070	59.8	65.8	11.8	10.7	14.7	-110.3
COc1ccc(CNC(=O)COC(=O)CN2C(=O)NC3(CCCC3)C2=O)cc1	3968	0.6	5.7	.	-4.2	6.2	-3.2
Cc1cc(C2C(=O)NC(=O)C2=O)c(C)cc1Br (stereo not given)	4198	-2.6	1.4	.	3.7	5.2	-25.0
O=C(N=Nc1c(O)[nH]c2ccccc12)c1cc(-c2cccs2)[nH]n1	5325	.	.	8.1	.	.	-23.3
Cc1ccc(-c2cc3c(nn2)-c2ccccc2C3=O)cc1	4191	48.4	45.7	20.2	0.4	8.9	75.6*
COc1ccc(CCNC(=O)c2cnccn2)cc1	6206	8.7	-0.1	6.2	17.7	17.9	-13.7
O=C(O)CP(=O)(c1ccccc1)c1ccccc1	3752	3.9	4.0	.	.	.	-8.9
Cc1ccc(NC2(C(F)(F)F)N=C(c3ccccc3)NC2=O)nc1 (stereo not given)	3055	.	.	3.7	.	.	-14.3
CCCC(=O)Nc1ccc(C(=O)COC(=O)C2=COCCO2)cc1	?	0.8	1.8	.	-1.0	2.9	-19.1
Cc1ccc(C(=O)c2c3ccccc3[n+]([O-])n2CCC(N)=O)cc1	3096	.	.	4.5	.	.	2.1
COC(=O)[C@@]1(Cc2ccc(F)cc2)C2c3cc(C(=O)N4CCCC4)n(CCc4ccc(O)c(O)c4)c3CC2CN1C(=O)c1ccccc1 (stereo not given in full)	.	0.8	6.4	.	2.2	3.1	.
Cc1nc(C(=O)NCc2ccccc2)sc1C1(C)CC(c2cccnc2)=NO1 (stereo not given)	4707	-2.0	-2.5	3.9	-3.8	-2.7	-16.5
Cc1ccsc1C1C2=C(CCCC2=O)Nc2ncnn21 (stereo not given)	22735*	2.7	4.9	.	6.2	-1.3	-4.8
Cc1ccc(NS(=O)(=O)c2ccc(C(=O)N3CCCCCCC3)cc2)cc1	4545	4.0	7.8	3.2	4.6	4.9	-4.0
Next structures follow.
SMILES	Autofluor counter	ugtP null kill	Sa RN4220 lethal	BJeLR lethal	Mtb hypoxia inh	Mtb hypoxia inh growth	PrP 5UTR inh
COc1ccc(C(=O)Nc2ccc3c4c(cccc24)CC3)cc1	10069	5.5	4.1	-5.2	13.6	20.4	-41.8
CCOc1ccc(NC(=O)C2CC(=O)N(Cc3ccco3)C2)cc1 (stereo not given)	4453	1.3	3.6	.	-8.4	0.2	-9.0
Cc1onc(-c2ccccc2)c1CNC(=O)Nc1ccc(C(F)(F)F)cc1	.	-13.4	-14.8	0.9	0.6	-2.5	-11.3
Cc1c(N)cc[n+](CC(=O)c2ccccc2)c1C	4844	-2.0	7.8	3.4	0.8	2.6	-13.6
CCC(C)C(NC(=O)c1ccccc1NC(=O)c1ccccc1)C(=O)O (stereo not given)	4709	-4.6	3.2	2.5	17.1	16.8	.
N#Cc1ccc(S(=O)(=O)Nc2ccc3ccccc3n2)cc1	5331	4.7	4.7	-1.2	6.7	9.2	-7.8
COCCNC(=O)CCCCCn1c(=S)[nH]c2ccccc2c1=O	22614*	-3.8	1.9	4.0	7.2	17.6	-3.0
O=C(CSc1nc(C(F)(F)F)cc(=O)[nH]1)N1CCCC1	4746	4.8	0.2	-11.1	2.1	1.4	-10.0
COc1ccccc1NC(=O)COC(=O)c1cc(C)nc2ccccc12	7794	1.3	3.1	.	3.2	4.4	-32.6
COc1ccc(NC(=S)N2CCN(S(=O)(=O)c3ccccc3)CC2)cc1	5311	6.4	4.2	.	8.8	10.7	-46.1
COc1ccc(OC)c2[nH]c(C(=O)NN=Cc3ccccc3O)cc12	.	-3.2	0.5	.	2.5	3.6	.
COc1ccc2[nH]c3c(c2c1)CCN1C(=O)C(CC(=O)NCC24CC5CC(CC(C5)C2)C4)C[C@H](C(=O)N2CCOCC2)[C@@]31C (stereo not given in full)	3833	-8.6	1.2	.	-16.0	3.4	-13.4
Cc1ccc(S(=O)(=O)c2ccc(NN)cc2)cc1	4141	12.0	9.2	.	5.4	8.1	-31.8
O=C(Nc1nnc(-c2ccco2)o1)c1cccc2ccccc12	2087	-0.7	9.7	-11.2	3.3	5.6	-19.2
CCOc1ccccc1C1N=C(c2ccc(OC)cc2)CC(c2ccccc2O)N1 (stereo not given)	4427	4.9	9.5	17.4	5.5	3.7	-39.2
c1ccc(-n2nnnc2Oc2cccc3cccnc23)cc1	4175	8.2	7.4	-3.8	-0.5	-3.0	-10.4
